Screening results (PubChem BioAssay)
EPAC2 antag – Validation qHTS for antagonist of cAMP-regulated guanine nucleotide exchange factor 4 (EPAC2); EPAC2 Rap1B BODIPY-GDP exchange, fluorescence; Potency, µM (series often up to 112 µM), for inactives: top-dose activity, negative = inhibition, usual class: inhibitors; hit rate 1.7% among 16,000; Rap guanine nucleotide exchange factor 4 (Homo sapiens), Q8WZA2; AID 1645886, 2021; active means well fitted inhibition curve with a large enough effect; inconclusive means small, poorly fitted or top-dose-only effect; inactive means no such curve, though single readings can be large or run the other way;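 further: 100% = activation by cAMP agonist control; nearly all actives have a fitted effect of over 40% in size; the record reuses the description of the EPAC1 agonist screen; inactives centre near -10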
Target sequence (Q8WZA2 whole entry, looked up): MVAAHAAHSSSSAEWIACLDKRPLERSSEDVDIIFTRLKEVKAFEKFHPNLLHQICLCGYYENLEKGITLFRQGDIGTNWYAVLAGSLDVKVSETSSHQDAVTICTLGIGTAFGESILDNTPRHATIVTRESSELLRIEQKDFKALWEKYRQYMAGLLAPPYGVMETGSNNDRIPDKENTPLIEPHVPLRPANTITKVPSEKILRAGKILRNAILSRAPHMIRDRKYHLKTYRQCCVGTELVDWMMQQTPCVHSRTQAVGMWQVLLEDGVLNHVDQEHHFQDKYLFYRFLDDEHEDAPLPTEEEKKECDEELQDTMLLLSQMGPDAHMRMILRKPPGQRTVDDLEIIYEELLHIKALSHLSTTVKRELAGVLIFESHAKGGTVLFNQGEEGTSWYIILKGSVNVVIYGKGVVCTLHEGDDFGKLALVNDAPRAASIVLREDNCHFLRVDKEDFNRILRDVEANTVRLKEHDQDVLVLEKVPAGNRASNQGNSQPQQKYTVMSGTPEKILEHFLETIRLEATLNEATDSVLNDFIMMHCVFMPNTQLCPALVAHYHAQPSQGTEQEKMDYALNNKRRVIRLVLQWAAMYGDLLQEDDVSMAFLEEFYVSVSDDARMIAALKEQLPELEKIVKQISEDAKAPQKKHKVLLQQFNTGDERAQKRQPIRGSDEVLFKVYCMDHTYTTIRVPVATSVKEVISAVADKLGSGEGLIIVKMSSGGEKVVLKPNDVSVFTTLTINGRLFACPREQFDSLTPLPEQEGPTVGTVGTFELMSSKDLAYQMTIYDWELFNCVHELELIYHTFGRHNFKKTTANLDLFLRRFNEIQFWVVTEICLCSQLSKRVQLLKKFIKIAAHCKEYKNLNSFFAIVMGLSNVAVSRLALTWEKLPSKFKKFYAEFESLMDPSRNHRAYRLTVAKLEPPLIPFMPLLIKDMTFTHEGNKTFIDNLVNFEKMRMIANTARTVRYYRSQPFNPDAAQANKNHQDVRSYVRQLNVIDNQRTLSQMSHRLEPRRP
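Normalized against a 6.5 mM cAMP agonist control, compounds were tested on 100 nM EPAC2 exchanging Rap1B-bound BODIPY-GDP (250 nM) for 50 uM GDP. Fluorescence drop (ex 480, em 540 nm) was tracked at room temperature over 30 min at 5-min intervals.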
* marks the source's active call; other numbers are inactive results; & = joins results of further samples; [ ] = dose if it differs, or a comment. Potency means the concentration at half of the fitted maximal effect. An excerpt; the hit share may differ from the screen's.

For Cc1cc(C)c(NC(=O)CN(CC(=O)O)CC(=O)O)c(C)c1Br the results were EPAC2 antag 32%[activator].
`NC(N)=NN=Cc1c(Cl)cccc1Cl` gave EPAC2 antag -22%.
`CC1(C)CC[C@]2(C)CC[C@@]3(C)C(=CCC4[C@@]5(C)CCC(O)C(C)(C)C5CC[C@@]43C)C2C1` (stereo partly specified) gave EPAC2 antag -13%.
`O=c1c2cc(O)c(O)cc2oc2cc(O)c(C3OC(CO)C(O)C(O)C3O)c(O)c12` (stereo unspecified) gave EPAC2 antag -3%.
`O=[n+]1ccn([O-])c2ccccc21` gave EPAC2 antag 7%.
For Cc1cc(C)c(S(=O)(=O)Nc2cccc(C(F)(F)F)c2)c(C)c1 the results were EPAC2 antag 40µM*.
For CC(=O)c1ccc(C(=O)NCc2nc(-c3ccccc3NC(=O)c3cc(C)oc3C)oc2C)cc1 the results were EPAC2 antag inconclusive.
NCc1ccc(S(N)(=O)=O)cc1 was read as EPAC2 antag -11%.
Screening CC(=O)NCCNC(=O)c1cnn(-c2nccc(-c3cc(C)sc3C)n2)c1C returned EPAC2 antag -6%.
Screening COc1ccc2c(c1)OC1(O)COc3cc(OC)c(OC)cc3C1=C2 (stereo unspecified) returned EPAC2 antag -22%.
Screening O=c1c(O)c(-c2ccccc2)oc2ccccc12 returned EPAC2 antag -14%.
For COc1ccc(CC2c3cc(OC)c(OC)cc3CC[N+]2(C)CCC(=O)OCCCCCOC(=O)CC[N+]2(C)CCc3cc(OC)c(OC)cc3C2Cc2ccc(OC)c(OC)c2)cc1OC (stereo unspecified) the results were EPAC2 antag -21%[20.5 µM].
`COc1cc(CN2CCOc3ccc(CN4CCC(Oc5cccnc5)CC4)cc3C2)ccc1F` gave EPAC2 antag -4%.
For O=C(O)c1ccccc1OP(=O)(O)O the results were EPAC2 antag 23%.
Screening Cc1ccc2c(C)ccnc2c1 returned EPAC2 antag inconclusive.
`COc1c2occc2c(OC)c2c(=O)cc(C)oc12` gave EPAC2 antag -10%[56.6 µM].
N#Cc1ccc(CN2CCC3(CC2)CCN(C(=O)c2cnccn2)CC3)cc1 was read as EPAC2 antag -6%.
`CN1CC[C@@]2(CCCN(C(=O)c3cccc(F)c3)C2)C1` gave EPAC2 antag -12%.
For CC(C)=CCC/C(C)=C\COc1c2ccoc2cc2oc(=O)ccc12 the results were EPAC2 antag inconclusive.
For CN(C)c1ncc2nc(-c3ccc(F)cc3)c(=O)n(C)c2n1 the results were EPAC2 antag 9%.
For CCNc1ncc2nc(-c3ccc(OC)cc3)c(=O)n(C)c2n1 the results were EPAC2 antag 1%.
`O=C(C1CCCCC1)N1CC(=O)N2CCc3ccccc3C2C1` (stereo unspecified) gave EPAC2 antag 0%&-10%&-8%.
`OC[C@H]1O[C@@H](n2cnc3c(Nc4ccccc4)ncnc32)[C@H](O)[C@@H]1O` gave EPAC2 antag -2%.
Screening CCCn1c(=O)c2[nH]c(-c3ccc(OCC(=O)Nc4ccc(C(C)=O)cc4)cc3)nc2n(CCC)c1=O returned EPAC2 antag -18%.
For CCN(CC)CCOc1ccccc1OC the results were EPAC2 antag -4%.
For NCC[C@H](O)C(=O)N[C@@H]1C[C@H](N)[C@@H](O[C@H]2O[C@H](CN)[C@@H](O)[C@H](O)[C@H]2O)[C@H](O)[C@H]1O[C@H]1O[C@H](CO)[C@@H](O)[C@H](N)[C@H]1O the results were EPAC2 antag -32%.
For NC(=O)NC1NC(=O)NC1=O (stereo unspecified) the results were EPAC2 antag -21%[151 µM].
For CC1=C(C/C=C(\C)CCC[C@H](C)CCC[C@H](C)CCCC(C)C)C(=O)c2ccccc2C1=O the results were EPAC2 antag -14%.
Screening COc1ccc(/C=C/C(=O)c2ccc(O)cc2O)cc1 returned EPAC2 antag -18%.
For Oc1ccc(C(O)CNCCCCCCNCC(O)c2ccc(O)c(O)c2)cc1O (stereo unspecified) the results were EPAC2 antag inconclusive.
Screening COc1cc(OC)c(OC)cc1CN1CCOc2ccc(CN3CCN(C(C)=O)CC3)cc2C1 returned EPAC2 antag -6%.
For Cc1cnc(CNc2ncnc3ccc(-c4cccc(C#N)c4)cc23)cn1 the results were EPAC2 antag -7%.
Screening CCC1CN(CC(=O)NCc2n[nH]c3c2CCCCC3)Cc2cc(OC)ccc2O1 (stereo unspecified) returned EPAC2 antag -11%.
Screening Cc1ncc(CO)c(CO)c1O returned EPAC2 antag 18%.
`COC(=O)N1CCC[C@@]2(CCN(C(c3ccccc3)c3ccccc3)C2)C1` gave EPAC2 antag inconclusive.
COc1cccc(-c2ccc(O)c(CNC(c3ccccc3)c3ccc(Cl)cc3)c2)n1 (stereo unspecified) was read as EPAC2 antag -14%.
Screening O=C(c1ccccc1-n1cccn1)N1CCOc2c(cc(-c3ncc(C(F)(F)F)cc3Cl)cc2OCC2CCCO2)C1 (stereo unspecified) returned EPAC2 antag -1%.
Screening C[C@H]1[C@H]2CC[C@H]3[C@@H]4CC=C5C[C@@H](N(C)C)CC[C@]5(C)[C@H]4CC[C@]23CN1C returned EPAC2 antag -37%.
For COc1ccccc1N1CCN(C[C@@H]2CN3C(=O)N(C)c4ccccc4C3=N2)CC1 the results were EPAC2 antag -26%.
Screening Cc1nc(Nc2ncc(C(=O)Nc3c(C)cccc3Cl)s2)cc(N2CCN(CCO)CC2)n1 returned EPAC2 antag -28%.
For O=C(c1cnccn1)N1CCC2(CCCN(c3ccncc3)C2)CC1 the results were EPAC2 antag -13%.
Cc1ccc(CN2[C@@H]3c4ccccc4C[C@@H]3OCCS2(=O)=O)cc1 was read as EPAC2 antag inconclusive.
For N[C@@H](Cc1c[nH]c2ccccc12)C(=O)O the results were EPAC2 antag 3%.
Cn1nnc2c(C(N)=O)ncn2c1=O was read as EPAC2 antag -1%.
For Cc1ccccc1-c1nccc(NCc2cccs2)n1 the results were EPAC2 antag inconclusive.
`O=C(c1cc(C(F)(F)F)cc(C(F)(F)F)c1)N1CCC2(CC1)CCN(c1ncccn1)CC2` gave EPAC2 antag inconclusive.
Screening CC(CN(C)C)CN1c2ccccc2Sc2ccccc21 (stereo unspecified) returned EPAC2 antag -12%.
For CCN1CCN(C(=O)c2cnn(-c3ncc4c(n3)-c3ccccc3CCC4)c2COC)CC1 the results were EPAC2 antag inconclusive.
`CC(=O)Oc1ccc(C2(c3ccc(OC(C)=O)cc3)C(=O)Nc3ccccc32)cc1` gave EPAC2 antag 0%&5%.
For COc1cc(C(=O)OC2CC[C@]3(C)C4CCC5[C@]6(O)CC(O)[C@]7(O)C(CN8CC(C)CCC8[C@]7(C)O)[C@]6(O)C[C@@]53O[C@]24O)cc(OC)c1OC (stereo partly specified) the results were EPAC2 antag -5%.
Screening O=c1cnc2cnc(N3CCOCC3)nc2n1Cc1ccc(F)cc1 returned EPAC2 antag -25%.
`CN1CCN(C2=Nc3ccccc3Cc3ccccc32)CC1` gave EPAC2 antag 5%.
Cc1cc(=O)c(C(=O)N[C@@H](C(=O)N[C@@H]2C(=O)N3C(C(=O)O)=C(CSc4nnnn4C)CS[C@H]23)c2ccc(O)cc2)c[nH]1 was read as EPAC2 antag -5%.
For O=C(O)C1OC(O)C(O)C(O)C1O (stereo unspecified) the results were EPAC2 antag -11%.
Screening CC(C)(Sc1cc(C(C)(C)C)c(O)c(C(C)(C)C)c1)Sc1cc(C(C)(C)C)c(O)c(C(C)(C)C)c1 returned EPAC2 antag 12%[56.6 µM].
`CCC1CN(Cc2cn[nH]c2-c2ccc(OC)cc2)Cc2cc(OC)ccc2O1` (stereo unspecified) gave EPAC2 antag -17%.
For CN(C)Cc1ccccc1-c1nccc(Nc2ccc(F)cc2)n1 the results were EPAC2 antag -11%.
Screening COCc1c(C(=O)NC2CCOC(C)(C)C2)cnn1-c1nccc(-c2cccs2)n1 (stereo unspecified) returned EPAC2 antag 3%.
CC(C)CN1CCC(=O)N([C@H](COc2ccccc2)c2ccccc2)CC1 was read as EPAC2 antag inconclusive.
For COc1ccc(CN2CCC(=O)N([C@H](CO)CC(C)C)CC2)cc1OC the results were EPAC2 antag -3%.
`O=C(Nc1cccc(C(F)(F)F)c1)c1cc(Br)cc(Br)c1O` gave EPAC2 antag -9%.
O=C(Nc1cccc(F)c1)N1CCC2(CC1)CCN(S(=O)(=O)c1ccccc1)CC2 was read as EPAC2 antag -22%.
`COc1ccc(-c2nc3cnc(Nc4cccc(OC)c4)nc3n(C)c2=O)cc1` gave EPAC2 antag -6%.
Nc1ccccc1N was read as EPAC2 antag 7%[239 µM].
For O=S1(=O)CCO[C@H]2Cc3ccccc3[C@H]2N1Cc1ccccc1Br the results were EPAC2 antag inconclusive.
Screening O=c1c(-c2cc(F)cc(F)c2)nc2cnc(N3CCNCC3)nc2n1C1CC1 returned EPAC2 antag -30%.
Screening Cc1ccnc2ncccc12 returned EPAC2 antag -9%.
Screening COc1ccc(C(=O)N2CCC[C@@]3(CCN(C(=O)NC(C)C)C3)C2)cc1 returned EPAC2 antag -25%.
`COc1ccc(-n2ccc(-c3sc(NCc4cc(OC)c5c(c4)OCO5)nc3C)n2)cc1` gave EPAC2 antag inconclusive.
Screening CN1CC(=O)N2C(Cc3c([nH]c4ccccc34)[C@H]2c2ccc3c(c2)OCO3)C1=O (stereo partly specified) returned EPAC2 antag 7%.
`CN(C)CCc1c[nH]c2ccc(Cn3cncn3)cc12` gave EPAC2 antag -7%.
CC(COc1ccccc1)NN (stereo unspecified) was read as EPAC2 antag 8%.
Screening Cc1sc2ccccc2[n+]1CCC[n+]1c(C)sc2ccccc21 returned EPAC2 antag 17%.
For C=CCSCC(N)C(=O)O (stereo unspecified) the results were EPAC2 antag -5%.
Screening COc1ccc(NC(=O)N2CCCC3(CCN(C(=O)c4ccco4)CC3)C2)cc1 returned EPAC2 antag -24%.
`O=C(O)CNC(=O)C(CS)Cc1ccccc1` (stereo unspecified) gave EPAC2 antag -23%.
CO[C@H]1O[C@@H]2O[C@@]3(C)CC[C@H]4[C@H](C)CC[C@@H]([C@H]1C)[C@@]24OO3 was read as EPAC2 antag -20%.
For CCN1CCN(C(=O)c2cc(NC(=O)COC)cc3nc(-c4ccncc4)n(C)c23)CC1 the results were EPAC2 antag -25%.
CCN1CCN(C(=O)NC(C(=O)NC2C(=O)N3C2SC(C)(C)C3C(=O)O)c2ccccc2)C(=O)C1=O (stereo unspecified) was read as EPAC2 antag 0%.
COCc1ccc(CN2CCOc3ccc(C4=CCCCC4)cc3C2)o1 was read as EPAC2 antag -27%.
For CC(C)NC[C@H](O)c1ccc(O)c(O)c1 the results were EPAC2 antag -4%&35%&-11%.
For COC(=O)[C@H](CC(C)C)N(Cc1ccccc1)S(=O)(=O)N(Cc1ccc(OC)cc1)[C@@H](CC(C)C)C(=O)OC the results were EPAC2 antag 3%.
O=C1C(=O)c2ncccc2-c2cccnc21 was read as EPAC2 antag inconclusive.
Screening COc1ccc(-c2nc3cnc(OC)nc3n(C[C@H]3CCCO3)c2=O)cc1 returned EPAC2 antag -10%.
COc1ncc2nc(-c3ccc(Cl)cc3)c(=O)n(Cc3cccs3)c2n1 was read as EPAC2 antag -22%.
Screening COc1ccccc1CNc1nc(-c2cccc(NS(C)(=O)=O)c2)nc2ccccc12 returned EPAC2 antag -22%.
For COc1cccc(O)c1CN1CCC2(CC1)c1ccccc1[C@@H](NC(=O)c1ccsc1)[C@@H]2OC the results were EPAC2 antag 12%.
O=C(c1cc(C(F)(F)F)cc(C(F)(F)F)c1)N1CCC2(CC1)CN(c1ccccc1)C2 was read as EPAC2 antag inconclusive.
`OC1(c2cccnc2)CCN(Cc2ccc3c(c2)CN(Cc2cccc4nccnc24)CCO3)CC1` gave EPAC2 antag -26%.
`N#Cc1cccc(-c2nccc(NCc3cccnc3)n2)c1` gave EPAC2 antag -9%.
`C[C@]12CC[C@@H]3c4ccc(OS(=O)(=O)O)cc4CC[C@H]3[C@@H]1CCC2=O` gave EPAC2 antag inconclusive.
For COc1cc(=O)n2c(c1C(=O)N(C)Cc1cscn1)CCN(C(=O)c1cccc(C)c1C)CC2 the results were EPAC2 antag inconclusive.
For C=C1C[C@H]2[C@@H]3C=C(C)C4=CC(=O)CC[C@]4(C)[C@H]3CC[C@]2(C)[C@@]1(OC(C)=O)C(C)=O the results were EPAC2 antag -17%.

Grouped by structure: those above containing fluorine (12)
For Cc1cc(C)c(S(=O)(=O)Nc2cccc(C(F)(F)F)c2)c(C)c1 the results were EPAC2 antag 40µM*.
`COc1cc(CN2CCOc3ccc(CN4CCC(Oc5cccnc5)CC4)cc3C2)ccc1F` gave EPAC2 antag -4%.
`CN1CC[C@@]2(CCCN(C(=O)c3cccc(F)c3)C2)C1` gave EPAC2 antag -12%.
For CN(C)c1ncc2nc(-c3ccc(F)cc3)c(=O)n(C)c2n1 the results were EPAC2 antag 9%.
Screening O=C(c1ccccc1-n1cccn1)N1CCOc2c(cc(-c3ncc(C(F)(F)F)cc3Cl)cc2OCC2CCCO2)C1 (stereo unspecified) returned EPAC2 antag -1%.
`O=C(c1cc(C(F)(F)F)cc(C(F)(F)F)c1)N1CCC2(CC1)CCN(c1ncccn1)CC2` gave EPAC2 antag inconclusive.
Screening O=c1cnc2cnc(N3CCOCC3)nc2n1Cc1ccc(F)cc1 returned EPAC2 antag -25%.
For CN(C)Cc1ccccc1-c1nccc(Nc2ccc(F)cc2)n1 the results were EPAC2 antag -11%.
`O=C(Nc1cccc(C(F)(F)F)c1)c1cc(Br)cc(Br)c1O` gave EPAC2 antag -9%.
O=C(Nc1cccc(F)c1)N1CCC2(CC1)CCN(S(=O)(=O)c1ccccc1)CC2 was read as EPAC2 antag -22%.
Screening O=c1c(-c2cc(F)cc(F)c2)nc2cnc(N3CCNCC3)nc2n1C1CC1 returned EPAC2 antag -30%.
O=C(c1cc(C(F)(F)F)cc(C(F)(F)F)c1)N1CCC2(CC1)CN(c1ccccc1)C2 was read as EPAC2 antag inconclusive.
